Vif A3G: HIV-1 Vif–A3G interaction blockers – biochemical, TR-FRET, GST-Vif 1-94, biotin-A3G peptide, dose response retest, primary screen (AID 1117319) | TR-FRET GST-Vif / biotin-A3G peptide binding; higher % means a stronger effect; test concentration not given here; strong numbers were not always called active | one-dose inhibition, %; IC50 in µM for titrated hits | 260,000 tested, 0.57% active;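 active = above the screen mean plus three standard deviations and confirmed in dose response; inconclusive = results disagree or hit not tested in dose response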;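 also: Vif residues 1-94 fused to GST binding biotinylated APOBEC3G peptide 110-148; 0% = full assay without inhibitor and 100% = GST in place of GST-Vif; retest series ran down from 100 µM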
HNF4A DNA FP: change in binding of human HNF4 alpha to DNA | P41235 | HNF4a-FITC DNA binding, fluorescence polarization, 1 h | activity change, % at 10 µM | 360,000 tested, 0.3% active | AID 1224865; in the data active = activity change above about 30%, passing the limit was not always enough;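 also: controls were the assay level and a saturating level of protein; the project sought stronger binding though the title names inhibitors; some compounds called inactive have numbers as strong as hits; positive values seem to mean higher polarization but the record does not say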
Calb FLC: affects C. albicans growth with fluconazole | growth inhibition, % (no concentration beside the values) | AID 1979 | C. albicans CaCi-2 (fluconazole-resistant clinical isolate) + fluconazole, Alamar Blue growth, 48 h | 300,000 tested, 0.57% active;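 active = most replicates above 75%; inconclusive = exactly half above 75%; inactive = most below 75%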;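 also: all wells also contain fluconazole at 8 µg/ml as a sub-toxic cotreatment; 0% = median of DMSO wells and 100% = median of geldanamycin control wells; wells of about 8 µL received 7.5 nL stock; the first replicate is given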
B2AR ag: human beta-2 adrenergic receptor agonism by FAP; Am2.2-beta2AR cells, FAP receptor internalization, flow cytometry; reference of the scale not given here; P07550; 340,000 tested, 0.43% active; response, % (test concentration not listed);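 active = response above a set limit, near 3 SD of response in nonfluorescent compounds, cut at about 42% in these data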;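 also: stock transfer was 100 nL into about 11 µL; a reference agonist was the positive control; negative values mostly stem from fluorescent compounds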
LANA-H2B inh: blocks KSHV LANA binding to histone H2A/H2B. Q9QR71. cell-free LANA-H2A/H2B peptide, fluorescence polarization. inhibition, % (test concentration not listed). 320,000 tested, 0.6% active. AID 2629; in the data active = inhibition mostly above about 10%, no sharp cut-off; inactive = mostly below about 6.7%;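 also: stock transfer was 7.5 nL into about 10 µL; 0% = median of vehicle wells and 100% = median of positive control wells; one replicate is shown; the record names a cut of 25% in any replicate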
Target sequence (Q9QR71 whole entry, looked up): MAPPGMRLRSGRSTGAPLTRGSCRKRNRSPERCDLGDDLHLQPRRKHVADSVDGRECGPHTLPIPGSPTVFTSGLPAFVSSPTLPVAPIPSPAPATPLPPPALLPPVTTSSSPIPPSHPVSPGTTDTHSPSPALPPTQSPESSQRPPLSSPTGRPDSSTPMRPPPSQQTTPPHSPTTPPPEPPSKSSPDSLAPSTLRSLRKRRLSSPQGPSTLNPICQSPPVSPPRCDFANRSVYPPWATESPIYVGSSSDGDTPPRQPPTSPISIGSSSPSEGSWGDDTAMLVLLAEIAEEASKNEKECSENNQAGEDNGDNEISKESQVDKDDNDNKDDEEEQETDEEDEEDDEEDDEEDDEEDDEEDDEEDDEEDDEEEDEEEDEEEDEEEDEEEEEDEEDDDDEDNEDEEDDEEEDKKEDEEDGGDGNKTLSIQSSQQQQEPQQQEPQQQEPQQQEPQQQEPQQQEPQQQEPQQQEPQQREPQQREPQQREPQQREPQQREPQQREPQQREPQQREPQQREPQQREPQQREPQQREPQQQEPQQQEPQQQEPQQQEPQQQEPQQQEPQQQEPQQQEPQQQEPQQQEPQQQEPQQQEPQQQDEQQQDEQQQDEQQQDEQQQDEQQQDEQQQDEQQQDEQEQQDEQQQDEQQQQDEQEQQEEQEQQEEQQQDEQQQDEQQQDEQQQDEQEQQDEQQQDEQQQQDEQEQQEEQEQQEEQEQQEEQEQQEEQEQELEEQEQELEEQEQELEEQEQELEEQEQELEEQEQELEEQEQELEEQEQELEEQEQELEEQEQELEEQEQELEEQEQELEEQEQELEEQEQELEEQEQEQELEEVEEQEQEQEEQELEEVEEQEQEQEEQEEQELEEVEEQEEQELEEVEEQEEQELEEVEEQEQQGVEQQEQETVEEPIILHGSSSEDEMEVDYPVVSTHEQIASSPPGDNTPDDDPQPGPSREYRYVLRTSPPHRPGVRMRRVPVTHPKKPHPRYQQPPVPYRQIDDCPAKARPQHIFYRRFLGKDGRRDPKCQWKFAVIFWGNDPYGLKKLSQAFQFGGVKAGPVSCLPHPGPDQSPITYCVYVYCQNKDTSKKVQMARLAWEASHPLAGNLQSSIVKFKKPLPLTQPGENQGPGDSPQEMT
RanGTP-Imp inh: disruptors of Ran-importin-beta complex formation – biochemical, FRET, CFP-Ran, YFP-importin-beta, homogeneous, primary screen. 300,000 tested, 1.1% active. AID 2216. cell-free CFP-Ran/YFP-importin-beta FRET ratio. inhibition, % (no concentration beside the values);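 active = most replicates above 15%; inconclusive = exactly half above 15%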;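 also: 0% = DMSO wells and 100% = Ran loaded with GDP instead of GTP; wells of about 40 µL received 100 nL stock; the first replicate is given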
ALR inh: blocks human ALR sulfhydryl oxidase activity. inhibition, % (no concentration beside the values). 290,000 tested, 3.8% active. purified ALR, DTT oxidation, H2O2 HRP-luminol luminescence;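 active = mean and each replicate at 75% or more; inconclusive = only one of the two met; inactive = neither met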;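 also: stock transfer was 7.5 nL into about 7.5 µL; 0% = neutral wells and 100% = wells with inactivated enzyme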
Active calls of the source: *; ? = inconclusive; / = no result given. Not a hit list. Share with any hit: about 6.3%.

Values run as follows: Vif A3G, HNF4A DNA FP, Calb FLC, B2AR ag, LANA-H2B inh, RanGTP-Imp inh, ALR inh
1) COc1ccc(-c2ccc(Nc3ccc(C(=O)N4CCOCC4)cc3)nn2)cc1OC
→ 4%, 0.8, -4, 8, 0.3, 3.3, -3
2) CCOC(=O)C(C)N(c1ccccc1Cl)S(C)(=O)=O (centres undefined)
→ /, -1.2, /, 12, -1.4, /, /
3) CCCN1CCC(=NNc2ccc(S(=O)(=O)N3CCOCC3)cc2[N+](=O)[O-])CC1
→ /, -3.1, -32, 19, -1.8, -0.2, -3
4) CC(=O)Nc1ccc(S(=O)(=O)NC2(c3ccccc3)C(=O)N(C)C(=O)N(C)C2=O)cc1
→ -12%, -0.7, /, -2, /, /, /
5) O=C1CSc2ccc(S(=O)(=O)NCc3ccc(Cl)cc3)cc2N1
→ -1%, 2.1, 7, 6, 1.3, 0.5, -11
6) CC1Cc2ccccc2N1C(=S)Nc1cccc(S(=O)(=O)N(C)C)c1 (centres undefined)
→ -6%, 4.5, -19, 3, 2.2, 0.1, -2
7) CCCCc1cc(=O)oc2c(C)c(OCC(=O)NCc3ccccn3)ccc12
→ /, 2.5, -7, -13, 0.5, 31*, -8
8) CCCCCC(=O)N(CN1C(=O)CCC1=O)c1ccccc1
→ 3%, -1.0, 37, 3, 0.6, 5.2, 3
9) CCCCN1C(=O)C(=O)N(CC(=O)NC2CCCc3ccccc32)C1=O (centres undefined)
→ 3%, 0.6, -9, -7, -11, -1.8, -21
10) O=C(CSc1nc2ccsc2c(=O)n1Cc1ccc(C(=O)O)cc1)NCc1ccco1
→ /, -0.9, -15, 5, 1.1, -3.1, -1
11) CN(CCOc1ccc(-c2ccn(S(=O)(=O)c3c(Cl)cccc3Cl)n2)cc1)c1ccccn1
→ -3%, -1.2, -2, -2, 8.6, -2.1, -6
12) COc1cccc(C(=O)C2CCCN(Cc3cn[nH]c3C3CCCCC3)C2)c1 (centres undefined)
→ 20%, -1.1, -5, 8, -5.1, 5.5, -11
13) O=c1c2ccc(Cl)cc2[nH]c(=S)n1Cc1cccnc1
→ ?, -1.3, -4, -14, -1.0, -2.4, -12
14) COc1ccc(NC(=O)c2coc3ccccc23)cc1OC
→ 2%, -2.2, -14, -8, -6.1, 2.3, 9
15) OC(COc1ccc2c(c1)CCC2)CN1CCN(c2ccccc2F)CC1 (centres undefined)
→ 3%, -4.7, -6, 8, -1.8, -0.1, -2
16) Cc1ccc(-c2nn(-c3ccccc3)cc2C=C2C(=O)CC(C)(C)CC2=O)cc1
→ 19%, 0.6, -4, 8, -0.5, -0.4, 46
17) O=C(c1cc2cc(F)ccc2[nH]1)N1CCCC(Nc2ccc(F)cc2)C1 (centres undefined)
→ /, -3.1, 18, 1, 3.1, 5.1, 7
18) NC(=S)NN=C(c1ccc(F)cc1)C1CC1
→ -7%, 4.0, /, 0, /, /, /
19) CC(C)Oc1ccc(OCCn2c(S(=O)(=O)O)nc3c(N)ncnc32)cc1
→ -3%, 1.0, -6, -3, -0.6, -1.5, -8
20) C/C(=N/NC(=O)c1cc(-c2ccccc2)nc2c(Cl)cccc12)c1cccnc1
→ /, -2.4, 64, -20, -3.0, 0.0, -19
21) Cn1c(=O)c2c(nc(N3CCN(Cc4ccccc4)CC3)n2CCCc2ccccc2)n(C)c1=O
→ 1%, -1.4, 2, -5, -3.2, 1.5, -7
22) COCc1nnc(NC(=O)C2CC(=O)N(CCc3ccc(F)cc3)C2)s1 (centres undefined)
→ /, 1.6, 1, 6, 0.4, 1.9, -2
23) Nc1nonc1C(=O)NCCNC(=O)c1cccs1
→ -1%, 1.4, 1, -15, -0.5, -0.1, 0
24) Cn1c(NC(=S)Nc2ccccc2)nc2ccccc21
→ -4%, -3.0, 1, 2, 0.8, -0.3, 0
25) Cc1cccc(CN2C(=O)c3ccccc3Sc3ccc(C(=O)NCCCN4CCOCC4)cc32)c1
→ -8%, -0.7, 2, -1, 0.3, 0.1, -1
26) O=C(NCCc1csc(-c2cccnc2)n1)c1ccc(Cl)cc1
→ -10%, 2.2, -2, -11, -3.1, -1.1, -6
27) Cc1cc(C)n(-c2nc3ccccc3nc2N2CCCCCC2)n1
→ 0%, 1.7, -2, 11, -7.0, 0.7, -6
28) Cc1ccccc1OCC(=O)Nc1ccc2c(c1)ncn2C
→ 1%, -0.9, 4, 0, -0.6, -0.3, -17
29) CCc1ccc(Oc2coc3cc(O)ccc3c2=O)cc1
→ -9%, -2.9, -6, 2, 2.5, 5.5, -2
30) CSCCC(NC(=O)c1ccccc1)C(=O)N1CC(C)OC(C)C1 (centres undefined)
→ -3%, 2.0, /, -8, -1.5, /, -2

Reformatted screen by screen: entries from further up
#16 Cc1ccc(-c2nn(-c3ccccc3)cc2C=C2C(=O)CC(C)(C)CC2=O)cc1
#17 O=C(c1cc2cc(F)ccc2[nH]1)N1CCCC(Nc2ccc(F)cc2)C1 (centres undefined)
assay / compound,16,17
Vif A3G,19%,/
HNF4A DNA FP,0.6,-3.1
Calb FLC,-4,18
B2AR ag,8,1
LANA-H2B inh,-0.5,3.1
RanGTP-Imp inh,-0.4,5.1
ALR inh,46,7

More entries.
Values run as follows: Vif A3G, HNF4A DNA FP, Calb FLC, B2AR ag, LANA-H2B inh, RanGTP-Imp inh, ALR inh
31) CC(NC(=O)c1ccco1)C12CC3CC(CC(C3)C1)C2 (centres undefined)
→ 4%, -0.6, /, 4, -4.2, /, 0
32) CC(C)C[C@H](NC(=O)CCCn1nnc2ccccc2c1=O)C(=O)O
→ ?, -1.2, 4, 0, -0.4, 0.7, -2
33) Nc1nc(O)c(Sc2ccccc2[N+](=O)[O-])c(=O)[nH]1
→ /, -0.5, -9, -3, -0.2, -1.0, -7
34) COc1ccc(C)cc1Nc1nc(-c2c(C)[nH]c3ccccc23)cs1
→ 11%, 1.7, 1, 2, 40*, -2.4, -6
35) CNC(=O)c1cn(-c2ccc(Cl)cc2)c(=O)c2ccccc12
→ -12%, 2.6, -5, 1, -4.3, 2.6, -12
36) O=c1cc(-c2c(F)c(F)c(F)c(F)c2F)oc2ccccc12
→ -6%, 0.8, -2, 39, -0.6, 0.5, -23
37) COc1ccc(S(=O)(=O)N(C)Cc2cccs2)cc1Br
→ 67%, -3.0, 12, 2, -3.5, 1.2, -9
38) COc1ccc(S(=O)(=O)N2CCC(N3CCN(c4ccccc4)CC3)CC2)cc1
→ -9%, /, -7, /, -0.7, 3.5, /
39) O=C(NCc1ccccc1)N[C@@H](Cc1ccccc1)C(=O)O
→ -4%, 3.8, 9, 5, 1.8, -0.7, -3
40) Cc1cccc(-c2nc(CSCC(=O)NCc3cccs3)c(C)o2)c1
→ 0%, 0.4, 15, 1, -0.1, ?, 98*
41) CCn1c(COc2ccc3ccccc3c2C)nnc1SCC(=O)Nc1cccc(C(=O)O)c1
→ 4%, -3.1, 17, 4, -2.2, 4.3, 9
42) Cc1c(NS(=O)(=O)c2ccc(F)cc2)c(=O)n(-c2ccccc2)n1C
→ -4%, -1.2, 7, 0, 1.0, 3.7, -11
43) Cc1ccc(C2(C)NC(=O)N(CC(=O)Nc3ccc(N4CCOCC4)cc3N3CCOCC3)C2=O)cc1 (centres undefined)
→ /, -0.4, /, -3, -2.7, -6.3, 22
44) O=C(CCl)NC(=O)NC12CC3CC(CC(C3)C1)C2
→ ?, 4.1, ?, 21, 1.4, 4.4, 86*
45) CCC(=O)c1c[nH]c(C(=O)NCc2cccc(C(F)(F)F)c2)c1
→ -1%, -0.6, 19, -11, -0.4, 4.5, 3
46) CCOC(=O)C1=C(C)NC2(O)c3ccccc3C(=O)C12O (centres undefined)
→ 31%, -4.9, 1, 4, 2.6, 12, 1
47) Cc1cc(C)n(C(=O)Cn2nc(C)c(Cl)c2C)n1
→ 1%, -2.6, -2, -5, 2.4, -1.7, -9
48) CN1C(=O)SC(Nc2ccc(F)cc2)C1=O (centres undefined)
→ -1%, 4.0, 1, 0, 0.5, -5.3, 20
49) O=C1OC(/C(=C\Nc2ccccc2)[N+](=O)[O-])c2ccccc21 (centres undefined)
→ 21%, 2.6, 4, 0, 4.8, 0.6, 6
50) COc1cccc(CNc2ccc([N+](=O)[O-])cc2C)c1
→ 9%, 4.2, 2, 6, -1.6, -1.3, -3
51) Cc1nc2cc3sc(C)nc3cc2s1
→ 32%, -2.4, 2, 1, 4.6, -1.8, -36
52) CC1=C/C(=N\S(=O)(=O)c2ccccc2)C(C(C)C)=CC1=O
→ 5%, -2.0, 55, -1, -4.0, -1.4, -2
53) Cc1c(NC(=O)c2ccccc2F)c(=O)n(-c2ccccc2)n1C
→ 13%, -0.1, 2, 3, 3.3, 2.2, 2
54) FC(F)(F)c1cc(C(F)(F)F)c2ccc(Oc3ccccc3)nc2n1
→ ?, -0.8, 35, -17, -9.1, 2.9, -4
55) CC(C)(C#CC(O)(c1ccccc1)c1ccccc1)N1CCCCC1
→ -4%, 0.5, -53, 0, 5.1, -8.8, -35
56) CC(CNCC1CCCO1)COc1ccccc1 (centres undefined)
→ 17%, 1.6, 1, 19, -2.7, 6.5, 5

In the list so far, these have a nitro group on carbon.
Values run as follows: Vif A3G, HNF4A DNA FP, Calb FLC, B2AR ag, LANA-H2B inh, RanGTP-Imp inh, ALR inh
3) CCCN1CCC(=NNc2ccc(S(=O)(=O)N3CCOCC3)cc2[N+](=O)[O-])CC1
→ /, -3.1, -32, 19, -1.8, -0.2, -3
33) Nc1nc(O)c(Sc2ccccc2[N+](=O)[O-])c(=O)[nH]1
→ /, -0.5, -9, -3, -0.2, -1.0, -7
49) O=C1OC(/C(=C\Nc2ccccc2)[N+](=O)[O-])c2ccccc21 (centres undefined)
→ 21%, 2.6, 4, 0, 4.8, 0.6, 6
50) COc1cccc(CNc2ccc([N+](=O)[O-])cc2C)c1
→ 9%, 4.2, 2, 6, -1.6, -1.3, -3

3 of the entries above in order of their number in HNF4A DNA FP, low to high.
| no. | SMILES | Vif A3G | HNF4A DNA FP | B2AR ag | LANA-H2B inh | RanGTP-Imp inh | ALR inh |
| --- | --- | --- | --- | --- | --- | --- | --- |
| 29 | CCc1ccc(Oc2coc3cc(O)ccc3c2=O)cc1 | -9% | -2.9 | 2 | 2.5 | 5.5 | -2 |
| 55 | CC(C)(C#CC(O)(c1ccccc1)c1ccccc1)N1CCCCC1 | -4% | 0.5 | 0 | 5.1 | -8.8 | -35 |
| 36 | O=c1cc(-c2c(F)c(F)c(F)c(F)c2F)oc2ccccc12 | -6% | 0.8 | 39 | -0.6 | 0.5 | -23 |

Fetched by structure from above:
Values run as follows: Vif A3G, HNF4A DNA FP, Calb FLC, B2AR ag, LANA-H2B inh, RanGTP-Imp inh, ALR inh
52) CC1=C/C(=N\S(=O)(=O)c2ccccc2)C(C(C)C)=CC1=O
→ 5%, -2.0, 55, -1, -4.0, -1.4, -2
55) CC(C)(C#CC(O)(c1ccccc1)c1ccccc1)N1CCCCC1
→ -4%, 0.5, -53, 0, 5.1, -8.8, -35
56) CC(CNCC1CCCO1)COc1ccccc1 (centres undefined)
→ 17%, 1.6, 1, 19, -2.7, 6.5, 5

Screening results as filed in PubChem BioAssay.
